# D2 agonist – human D2 receptor agonism in beta-arrestin assay; DiscoveRx PathHunter D2 beta-arrestin, luminescence, 90 min; 100% = 57 uM dopamine signal; activation, % (test concentration not listed); 360,000 tested, 0.084% active; in the data active = activation above about 40%; inconclusive = about 15% to 40%; inactive = below about 15%; further: compound concentration not given in the record; the text of the record calls up to 30% inactive
#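 Agonist mode: compounds alone added to overnight-plated D2 PathHunter cells for 90 min at 37 C, with 57 uM final dopamine (EC100) defining full response. Beta-arrestin recruitment detected by chemiluminescent reagent, read after 1 h at ambient temperature.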
# D2 potentiator – potentiates the human D2 dopamine receptor allosterically; 360,000 tested, 0.23% active; DiscoveRx D2 beta-arrestin cells, luminescence, 90 min; 100% = 57 uM dopamine signal; potentiation, % (no concentration beside the values); P14416; active = potentiation of 50% or more; inconclusive = 30% to 50%; inactive = 30% or less;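 further: compound concentration not given in the record; tested on top of an EC20 dose of dopamine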
#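 D2 cells co-treated with compound plus 50 nM dopamine (EC20) for 90 min at 37 deg C to detect potentiation. Beta-arrestin recruitment was read as enzyme-fragment luminescence after 1 h at ambient temperature. Full response was set by 57 uM dopamine.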
# Six1-Eya2 inh – inhibitors of human Six1/Eya2 interaction; Q15475+O00167; AlphaScreen GST-Six1/His-Eya2 binding, biochemical; hits give low values; control for the full effect not named in the record; activity change, % (no concentration beside the values); 360,000 tested, 0.56% active; AID 651725; in the data active = activity change below about -65%; inconclusive = about -30% to -65%; inactive = above about -30%; further: on the % scale 0 is the no-effect control and ±100 the full control effect; compound concentration not given in the record
# Target sequence (O00167 whole entry, looked up): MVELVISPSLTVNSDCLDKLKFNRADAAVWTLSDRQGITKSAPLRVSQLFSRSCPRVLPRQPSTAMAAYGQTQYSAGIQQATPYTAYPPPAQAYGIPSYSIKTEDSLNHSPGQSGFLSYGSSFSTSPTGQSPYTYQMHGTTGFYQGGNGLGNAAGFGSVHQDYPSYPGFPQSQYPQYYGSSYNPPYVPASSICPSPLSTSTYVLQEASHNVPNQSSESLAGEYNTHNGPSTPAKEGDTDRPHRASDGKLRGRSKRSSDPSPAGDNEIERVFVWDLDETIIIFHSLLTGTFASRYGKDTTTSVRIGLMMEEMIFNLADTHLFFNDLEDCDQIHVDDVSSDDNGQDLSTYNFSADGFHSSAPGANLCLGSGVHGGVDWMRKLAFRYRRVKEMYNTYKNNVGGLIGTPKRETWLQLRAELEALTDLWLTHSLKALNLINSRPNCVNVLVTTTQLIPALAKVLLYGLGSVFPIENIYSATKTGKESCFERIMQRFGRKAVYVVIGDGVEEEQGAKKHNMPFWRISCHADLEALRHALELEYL
# Target sequence (Q15475 whole entry, looked up): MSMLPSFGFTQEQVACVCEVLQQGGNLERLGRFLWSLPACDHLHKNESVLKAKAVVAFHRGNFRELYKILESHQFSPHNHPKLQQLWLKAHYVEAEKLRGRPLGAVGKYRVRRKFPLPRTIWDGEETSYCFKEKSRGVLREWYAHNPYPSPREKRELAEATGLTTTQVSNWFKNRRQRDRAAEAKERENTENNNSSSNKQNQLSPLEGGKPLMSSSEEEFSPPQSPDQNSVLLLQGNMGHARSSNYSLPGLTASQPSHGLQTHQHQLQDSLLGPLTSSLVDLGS
#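 Compounds are tested against tagged Six1 and Eya2 proteins bridged by glutathione donor and nickel acceptor beads; after a one-hour incubation at 37 °C without light, AlphaScreen emission is recorded.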
# PINK1 modulator – PINK1 expression modulation | PINK1 immunofluorescence, high-content cytometry, 24 h | 410,000 tested, 0.2% active | AID 624263 | Potency, µM (top dose mostly 76.6 µM), inactives show at the highest dose activation (PINK1 increase), usual class: activators; active = well fitted activation curve with a large enough effect; inconclusive = small, poorly fitted or top-dose-only effect; inactive = flat fitted curve, though single readings scatter; cell line not stated here;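 further: potency means the concentration at half of the fitted maximal effect; % of control where 0% means no effect; nearly all actives have a fitted effect of over 65% in size; a mitochondrial uncoupler was the plate control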
#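 Stable cell line, 250 cells/well, 12 h attachment; compounds pinned at 5 concentrations, 24 h; CCCP control. Fixed with nuclear dye, primary antibodies 12 h at 10 degrees C, secondary plus cell stain; laser-scanning cytometer read.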
# CtBP-E1A blk – inhibitors of CtBP/E1A interaction. 340,000 tested, 0.49% active. AID 651724. activity change, % (no concentration beside the values). AlphaScreen GST-E1A/His-CtBP binding, 1536-well; hits give low values; control for the full effect not named in the record; in the data active means activity change below about -65%; inconclusive means about -30% to -65%; inactive means above about -30%; further: on the % scale 0 is the no-effect control and ±100 the full control effect; compound concentration not given in the record
#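 AlphaScreen with 125 nM GST-E1A and 125 nM His-CtBP (5X stocks) in Tris pH 8.0, 300 mM NaCl, BSA, Tween 20, TCEP. Compounds preincubated 2 h at 37 deg C, then glutathione donor/nickel acceptor beads added for 1 h at 37 deg C in dark.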
# TRPML1 agonist – agonists of human TRPML1 channel. TRPML1-expressing cells, Ca2+ dye fluorescence, FDSS; host cell line not named in the record; reference of the full effect not given here. Q9GZU1. activation, % (no concentration beside the values). 410,000 tested, 0.12% active; in the data active = activation above about 50%; inconclusive = about 30% to 50%; inactive = below about 30%; further: 0% is about no effect; the text of the record puts the active cut at 80%
#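 In this qHTS format, compounds were pin-transferred onto Ca8-dye-loaded TRPML1-DL cells induced with Tet overnight, and intracellular Ca2+ fluorescence was recorded kinetically for 110 s after a 10 s baseline. A subsequent 4uM final 54-4 (EC80) addition followed by a second 110 s read served as the antagonist phase.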
# The depositor's hits bear a star; ? = inconclusive; . = not tested or not shown; [ ] = dose if it differs, or a comment.
# Every second line gives: CtBP-E1A blk, PINK1 modulator, D2 potentiator, TRPML1 agonist, D2 agonist, Six1-Eya2 inh
> Cc1ccccc1NC(=O)CCCNC(=O)c1ccc(Cl)cc1
  -3, 3.4%, -4, 1.9, 1.6, -1
> CC(=O)c1ccc(NC(=O)Nc2ccc([N+](=O)[O-])cc2)cc1
  -1, -0.2%, -8, 0.4, -4.5, -2
> O=C(C[C@H]1C[C@H](C(=O)N2CCOCC2)[C@@]2(CCC3CCCC3)c3[nH]c4cc(-c5ccco5)ccc4c3CCN2C1=O)NCCc1ccccn1
  -15, 8.4%, -6, 0.9, -5.5, -10
> COc1ccc(Cc2nnc(NS(=O)(=O)Cc3ccccc3)s2)cc1
  -8, 1.0%, 0, 0.2, -5.0, -7
> C=CCNC(=S)N1CCc2c([nH]c3ccccc23)C1C (configuration not stated)
  10, 5.4%, -5, -0.8, -2.7, -24
> O=C(NCc1ccccc1Cl)C1CCC(=O)N(CC2CCCCC2)C1 (configuration not stated)
  5, -1.4%, 13, 0.4, -4.3, 1
> COc1ccc(OC)c(NC(=O)c2cc(-c3c(C)cc(C)cc3O)n[nH]2)c1
  ., 0.2%, -3, 1.4, 2.1, -1
> COc1ccc(NC(=O)CSc2ccc3nnc(CCNC(=O)c4ccccc4)n3n2)cc1
  -1, 0.3%, -9, -0.7, -3.2, -2
> [O-]/C(=C(\C(=S)Nc1cccc2ccccc12)[n+]1ccccc1)c1ccc2c(c1)OCCO2
  0, -12%[38.3 µM], 1, -0.7, -3.2, -9
> CCOC(=O)c1sc(=S)n(-c2cccc(C(F)(F)F)c2)c1SC
  -8, 4.9%, -17, 2.6, -0.1, 9
> CN(C)/C=C/C1=CC(=O)CC(C)(C)C1
  -5, 3.4%, -12, 0.4, -4.7, 6
> Cc1ccc(C(=O)N/N=C\c2ccc(-c3ccc(Cl)cc3)o2)cn1
  ., ?, -14, -0.3, 3.1, -5
> CC12CCC(=O)N1C(C(=O)Nc1cccc(F)c1)CS2 (configuration not stated)
  -21, -0.3%, -5, 0.8, -2.0, -3
> COc1ccc2c(c1)CCC1(C)CC(=O)C(Br)=C21 (configuration not stated)
  -3, -1.8%, -12, 1.6, -3.0, -16
> CCCOc1ccc(C(=O)Nc2ccc3c(c2)OCCO3)cc1
  27, 6.9%, 0, 0.5, -1.5, 12

# (more compounds)
# Every second line gives: CtBP-E1A blk, PINK1 modulator, D2 potentiator, TRPML1 agonist, D2 agonist, Six1-Eya2 inh
> COc1ccc(C(=O)CCC(=O)N2CCN(c3ccccc3)CC2)cc1
  1, 0.0%, -2, 1.5, -0.8, -3
> COc1cc(/C=C/C(=O)O)ccc1O
  -24, 0.1%, -10, ., -5.2, 8
> CC(C)c1ccc(OCC(O)CNC(C)c2ccccc2)cc1 (configuration not stated)
  0, -1.9%, -8, 3.1, 3.2, 0
> O=C(NC(=O)N1CCN(c2ccccc2F)CC1)c1ccccc1
  -3, ., -19, 0.2, 2.0, 6
> c1ccc(Oc2ccc3ccccc3n2)cc1
  26, 2.7%, -8, 1.3, -1.4, 25
> O=S(=O)(NCCc1nc2ccccc2[nH]1)c1ccccc1
  5, 0.3%, 0, 0.1, -4.9, 3
> CCC(C(=O)NC1CCCCC1)n1c2ccccc2c2nc(=O)cc(C)n21 (configuration not stated)
  9, 1.7%, 1, -1.5, -1.1, 1
> O=C(CN1CCCCCC1)Nc1ccc(Cl)cc1F
  4, 3.2%, -14, 0.5, -3.2, 20
> COC(=O)c1cc(-c2cccs2)nn1-c1ccccc1
  4, -1.5%, -5, 2.5, 2.2, 2
> COc1ccc(NC(=O)NNC(=O)COc2cc(C)c(Cl)c(C)c2)c(OC)c1
  0, 5.1%, 4, 0.3, -0.5, 1
> Cc1cc(NC(=O)Nc2cccc(Cl)c2)n(-c2ccccc2)n1
  2, -0.5%, -10, -1.4, -1.2, 6
> COc1ccc(Sc2ccccc2CN(C)C)cc1OC
  -9, 3.6%, -10, -0.5, -2.6, -10
> O=C(CCNS(=O)(=O)c1ccc2c(c1)CCC(=O)N2)NCc1ccc2c(c1)OCO2
  8, -2.4%, -3, -0.4, -0.6, -2
> CCCCOc1ccc(C(=O)NCCc2ccccc2)cc1
  ., 8.9%, 3, 1.5, 4.9, 3
> CC(C)(C)c1ccc(CCC2OCC(CN3CCOCC3)O2)cc1 (configuration not stated)
  -10, 3.0%, -3, 0.6, -2.6, -1

# Next section
# Every second line gives: CtBP-E1A blk, PINK1 modulator, D2 potentiator, TRPML1 agonist, D2 agonist, Six1-Eya2 inh
> COc1ccc(CCNC(=O)C2CCN(S(=O)(=O)c3ccc(NC(C)=O)cc3)CC2)cc1OC
  -3, 0.4%, -7, 0.7, -1.7, -7
> COc1cnc(N(C)C)nc1Sc1ccc(Cl)cc1
  24, -1.0%, 3, 2.0, -2.5, 19
> O=C(NN=Cc1ccc(F)cc1)c1cccc(S(=O)(=O)N2CCCC2)c1
  -3, 0.3%, -4, 1.1, 0.5, 0
> Cc1ccc(S(=O)(=O)N2CCN=C2SC(C)c2ccccc2)cc1 (configuration not stated)
  23, 2.2%, -11, 2.2, 0.3, 10
> CCc1nc(SCC(=O)Nc2c(C)n(C)n(-c3ccccc3)c2=O)n[nH]1
  21, -2.1%, -22, 0.8, 1.6, 5
> C/C(=N\Nc1cc(C)nc(NCc2ccccc2)n1)c1ccc([N+](=O)[O-])cc1
  3, 17%, -6, 3.6, -3.6, -5
> CCN(CC)C(=O)c1sc2[nH]c(=S)n(-c3ccccc3)c(=O)c2c1C
  8, ., -18, -0.5, 0.2, 0
> O=C(c1cccc(F)c1)N1CCN(C(=O)C2CC2)CC1
  6, 3.0%, -10, -0.6, -2.3, 2
> COc1ccc(NC(=S)N2CCC3CC2c2c(Cl)cccc23)c(OC)c1 (configuration not stated)
  -22, 4.4%, -1, -0.2, -8.7, -13
> COc1ccc(CC(=O)OCC(=O)NC2CCCCC2)cc1
  ., 0.3%, -6, -0.5, -1.5, -3
> Cc1c(NC(=O)CSc2ncnc3c2cnn3-c2ccccc2)c(=O)n(-c2ccccc2)n1C
  -3, 0.1%, 1, -0.7, -3.9, -10
> NC(=S)Nc1cccc2cn[nH]c12
  -1, -0.2%, 0, 1.3, -3.0, 7
> O=C(Oc1ccc(-c2nc(-c3ccccn3)no2)cc1)c1ccccc1
  -1, 0.1%, -5, 0.0, -2.6, -9
> Cc1ccc(C(=O)C2CC2)c(C)c1
  2, -1.1%, -27, 0.5, -1.3, 4
> CC(=O)Nc1cccc(NC(=O)C2CCCN2C(=O)Nc2ccc(Cl)cc2)c1 (configuration not stated)
  -3, 1.8%, -31, -0.1, 1.8, 0

# Going on with the list.
# Every second line gives: CtBP-E1A blk, PINK1 modulator, D2 potentiator, TRPML1 agonist, D2 agonist, Six1-Eya2 inh
> CN(C)c1ccc(CN2CCCCC2)cc1
  1, -1.2%, -18, 1.1, -1.3, 1
> CCc1ccc(Nc2n[n+](-c3ccccc3)c(-c3c(Cl)cccc3Cl)s2)cc1
  ?, ?, -17, -1.1, -3.2, ?
> Cc1ccc(-c2nn(CCC(=O)NN3CCOCC3)c(=O)c3ccccc23)cc1
  8, 2.1%, 11, 2.2, -1.5, -1
> COc1ccccc1-c1nnc(NC(=O)C2CCCN2S(=O)(=O)c2cccs2)o1 (configuration not stated)
  -8, -0.5%, -13, 0.1, -2.8, -18
> Cc1ccc(C(=O)CSc2nnc(COc3cccc(C)c3)o2)cc1
  30, 3.2%, -9, 0.5, -1.3, 16
> Cc1cccc(-n2c(-c3csc(C)c3C)n[nH]c2=S)c1
  -2, 0.5%, -2, 1.3, -1.2, -3
> O=C(NC1CCCC1)C1CCCN(S(=O)(=O)c2ccc(F)cc2)C1 (configuration not stated)
  4, 2.1%, 6, 0.1, -1.0, 7
> Cc1cc(=O)oc2cc(OCc3ccc(S(=O)(=O)N4CCOCC4)cc3)ccc12
  -10, 8.8%[38.3 µM], -13, 0.7, -1.3, -2
> CC(C)CN=C(NS(=O)(=O)c1ccccc1)C(Cl)(Cl)Cl
  13, -3.8%, 77*, 2.3, 10, 2
> O=C(CSc1nnc2ncccn12)N1CCCCCC1
  0, -2.5%[38.3 µM], 7, -0.1, 2.2, 5
> CCCNNC(=O)C(O)(c1ccccc1)c1ccccc1
  9, 2.1%, -16, 0.5, 1.5, 3
> Cc1ccc(OCCC(=O)OC(C)C(=O)Nc2c(C)n(C)n(-c3ccccc3)c2=O)cc1 (configuration not stated)
  -23, 2.3%, -19, 0.4, -1.9, 0
> Cc1ccc(/C=C/c2nnc(-c3cccc(C)c3)o2)cc1
  3, 1.0%[38.3 µM], -18, 0.5, -3.0, 3
> CC(=O)OC1CCC2C3CCc4cc(O)ccc4C3CCC12C (configuration not stated)
  0, 3.0%, 1, 1.5, 1.5, -2
> COc1ccc(CC(=O)NC2CCSc3ccccc32)cc1OC (configuration not stated)
  -1, 2.6%, -10, -0.3, -3.1, -1

# (cont.)
# Every second line gives: CtBP-E1A blk, PINK1 modulator, D2 potentiator, TRPML1 agonist, D2 agonist, Six1-Eya2 inh
> CC(=NNC(=O)c1ccncc1)c1ccc2ccccc2c1O
  ?, 1.2%, -2, 79*, 4.8, ?
> Cc1c(Cl)cccc1NC(=O)C1CCN(c2cnccn2)CC1
  3, 10%, -2, 0.0, -1.9, 4
> O=S(=O)(c1ccc(Cl)cc1)N1CCCCCC1
  6, 1.2%, -5, 1.2, 1.7, 9
> CC(C)(C)OC(=O)NCCCCCNC(=O)c1nc[nH]c1C(=O)N1CCc2ccccc2C1
  -9, 0.1%, 10, 0.8, 6.7, -14
> Cc1ccc(CNC(=O)c2ccc(N3CCc4ccccc43)c([N+](=O)[O-])c2)cc1
  ?, 0.4%, -13, 0.1, -7.2, ?
> COc1ccc(C(=O)N2CCN(c3nc4cc(C)ccc4cc3C#N)CC2)c(OC)c1
  4, 2.6%, 20, 0.0, 3.3, 5
> COCC(=O)N(C)c1nnc(-c2ccc([N+](=O)[O-])cc2)s1
  52, ., 1, -0.3, 0.1, 22
> O=C(CNC(=O)C1CCCCC1)Nc1ccc(F)c(Cl)c1
  10, 0.9%, -13, -0.7, 1.2, 4
